KCNQ2 block: KCNQ2 potassium channel inhibitors, primary screen, cell-based, CHO-K1, FluxOR thallium flux, B-score (AID 2156); B-score at 10 µM; 20 min; active compounds read low; only compounds with negative scores are shown here; some inactives read as strong as hits; 1.1% of 310,000 active; O88943;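 active = fluorescence ratio B-score at most minus 3 library SDs, with starting brightness B-score within 2 library SDs, cut at about -5.5 in these data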
Target sequence (O88943 whole entry, looked up): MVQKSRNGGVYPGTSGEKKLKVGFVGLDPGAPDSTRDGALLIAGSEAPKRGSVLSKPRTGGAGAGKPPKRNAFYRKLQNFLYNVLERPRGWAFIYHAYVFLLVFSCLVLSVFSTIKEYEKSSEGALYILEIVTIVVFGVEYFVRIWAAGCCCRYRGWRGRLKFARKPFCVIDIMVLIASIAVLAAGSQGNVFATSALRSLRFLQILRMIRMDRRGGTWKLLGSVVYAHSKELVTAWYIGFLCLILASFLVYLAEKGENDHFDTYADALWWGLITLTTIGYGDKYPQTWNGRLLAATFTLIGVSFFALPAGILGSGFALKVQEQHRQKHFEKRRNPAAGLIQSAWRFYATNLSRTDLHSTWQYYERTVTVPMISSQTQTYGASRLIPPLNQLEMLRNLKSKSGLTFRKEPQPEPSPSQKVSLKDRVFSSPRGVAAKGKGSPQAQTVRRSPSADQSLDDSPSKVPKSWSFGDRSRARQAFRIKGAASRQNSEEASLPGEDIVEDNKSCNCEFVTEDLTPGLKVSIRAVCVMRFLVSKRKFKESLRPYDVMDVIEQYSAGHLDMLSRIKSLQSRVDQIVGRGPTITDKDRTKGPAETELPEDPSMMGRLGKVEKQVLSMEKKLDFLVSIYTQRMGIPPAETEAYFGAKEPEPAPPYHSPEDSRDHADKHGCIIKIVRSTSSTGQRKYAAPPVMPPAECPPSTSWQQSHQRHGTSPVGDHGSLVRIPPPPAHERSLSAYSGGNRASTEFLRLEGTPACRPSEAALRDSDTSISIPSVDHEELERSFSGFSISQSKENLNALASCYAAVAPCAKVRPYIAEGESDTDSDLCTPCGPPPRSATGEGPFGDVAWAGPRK
KCNQ2 block baseline: second read-out of KCNQ2 block, no call of its own (marks repeat the call); B-score; measured here: initial fluorescence intensity artifact check;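 brightness before thallium and not channel activity; 0 = typical well and far values either way flag optical interference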
* marks the source's active call; other numbers are inactive results; i = inactive. Some of the compounds tested. The share of hits here may be higher or lower than overall.

| Molecule | KCNQ2 block baseline | KCNQ2 block |
| --- | --- | --- |
| COc1ccc(NC(=O)CN2CCC3(O)CCCCC3C2c2cc(OC)ccc2OC)cc1 (stereo unspecified) | 0.23 | i |
| CCOc1ccccc1N1CCN(C(=O)c2cc3c(C)cc(C)cc3[nH]2)CC1 | -0.04 | i |
| COc1ccc(NS(=O)(=O)c2csc(C(=O)N3CCCC3)c2)cc1 | 0.22 | i |
| O=C1C2C3c4ccccc4C(c4ccccc43)[C@@H]2C(=O)N1c1nc(-c2ccccc2)cs1 (stereo partly specified) | 0.2 | i |
| O=C([C@H](Cc1ccccc1)N1C(=O)c2ccccc2C1=O)N1CCOCC1 | -0.4 | i |
| CCOc1cc(C(=O)N2CCN(c3ccccn3)CC2)cc(OCC)c1OCC | -2 | i |
| Cc1nn(-c2ccc3nnc(Br)n3n2)c(C)c1Br | -0.01 | i |
| NNC(=O)CNC(c1ccccc1)c1cc(Br)ccc1NC(=O)c1ccc(Br)cc1 (stereo unspecified) | -1.7 | i |
| Cn1nc(C(=O)Nc2cccc(S(N)(=O)=O)c2)c2ccccc2c1=O | 0.43 | i |
| CC(C)(C)C1CCC(=O)N(CCC#N)CC1 (stereo unspecified) | 0.06 | i |
| COc1cccc(OC)c1C(=O)NC(=S)NNC(=O)[C@H]1C[C@@H]1c1ccccc1 | -1.5 | i |
| Clc1ccc(C2CC(c3cccs3)n3ncnc3N2)cc1Cl (stereo unspecified) | 0.73 | i |
| C=CCN(C(=O)CCS(=O)(=O)c1cccc2nsnc12)c1ccccc1 | -0.74 | i |
| NC(=O)C1CCCN(C(=O)CCCNC(=O)c2ccc(Cl)cc2)C1 (stereo unspecified) | 0.31 | i |
| CCCC(=O)NCn1nnc(-c2ccc(Cl)cc2)n1 | -1.7 | i |
| COc1cc2[nH]c(=S)n(C3CCCC3)c(=O)c2cc1OC | 0.03 | i |
| COc1ccc(/C=C2\CCc3ccccc3C2=O)cc1Cn1nc(C)cc1C | 0.99 | i |
| Cc1ccc(C)c(N2CCN(S(=O)(=O)c3c(C)noc3/C=C/N(C)C)CC2)c1 | -0.17 | i |
| O=S(=O)(c1ccc(NC(=S)NCc2ccncc2)cc1)N1CCCCC1 | -0.86 | i |
| COc1ccccc1-n1cnnc1SC(C)C(=O)Nc1ccc(NC(C)=O)cc1 (stereo unspecified) | 0.17 | i |
| CC(/C=N/n1c(-c2n[nH]c3c2CCC3)n[nH]c1=S)=C\c1ccco1 | 0.29 | i |
| O=C(CN1C(=O)NC2(CCCC2)C1=O)OCCOc1cccc(Cl)c1 | -0.29 | i |
| COc1ccc(C2Nc3ccccc3C(=O)N2c2ccc(C)cc2)cc1COc1ccccn1 (stereo unspecified) | -2.5 | i |
| O=C(O)c1cc(C(=O)O)cc(N2C(=O)CSC2=S)c1 | 1.2 | i |
| CC(NO)/C(=N\O)c1cccs1 (stereo unspecified) | 0.06 | i |
| CCCCNC(=O)C(c1ccc(OCC(=O)OC)c(C(=O)OC)c1)N(CCOC)C(=O)CCCCCN1C(=O)NC(c2ccc(-c3ccccc3)cc2)C(C(=O)OCc2ccccc2)=C1C (stereo unspecified) | -3.8 | i |
| O=C(Cn1c(NCCO)nc2ccccc21)NCC(F)(F)F | -0.43 | i |
| CC(O)(CS(=O)(=O)Cc1ccccc1)c1ccccc1 (stereo unspecified) | -0.95 | i |
| O=C(c1cccc(-n2cccc2)c1)N1CCN(S(=O)(=O)c2ccccc2)CC1 | 0.37 | i |
| CC(C)[C@H]1C(=O)Nc2ccccc2N1C(=O)N[C@@H](Cc1ccccc1)C(=O)N[C@@H](C(=O)O)c1ccccc1 | -0.44 | i |
| COc1cccc(NC(=O)c2cc3ccccc3o/c2=N\O)c1 | 6.7 | i |
| Cc1cc(C)nc(/N=C2\NC(=O)CC(C(=O)O)N2c2ccc(Cl)cc2)n1 (stereo unspecified) | 0.85 | i |
| COc1ccc(-c2ncccc2O)cc1 | -0.3 | i |
| COc1ccc(CCNc2c([N+](=O)[O-])c(=O)oc3ccccc23)cc1OC | 2.2 | i |
| COc1ccccc1NC(=O)CN(c1ccccc1)S(=O)(=O)c1ccccc1 | -0.43 | i |
| COc1ccc(CNS(=O)(=O)NCc2ccc(C)cc2)cc1OC | 0.13 | i |
| COc1cccc(NC2=C(NCCO)C(=O)c3ccccc3C2=O)c1 | -0.25 | i |
| COc1cccc2oc(-c3ccco3)cc(=O)c12 | 0.56 | i |
| Cc1cccc(NC(=O)CC2SC(=O)N(c3ccccc3)C2=O)c1 (stereo unspecified) | -0.57 | i |
| O=C(CCCN1C(=O)c2ccccc2C1=O)Nc1nccs1 | 2.8 | i |
| CCOc1ccc(S(=O)(=O)N/N=C(\C)c2ccc3c(c2)OCO3)cc1 | 0.01 | i |
| O=C(CSc1nnnn1-c1ccccc1)Nc1nsc(-c2ccccc2)n1 | -0.81 | i |
| COc1ccc(-c2nc(CN3CCN(c4ccccc4OC)CC3)c(C)o2)cc1 | -0.74 | i |
| O=C(Oc1ccc(-c2cnc3ccccc3n2)cc1)c1cc([N+](=O)[O-])ccc1Cl | 0.93 | i |
| CC1c2cc3c(cc2CCN1C(=O)c1cccc(Cl)c1)OCCCO3 (stereo unspecified) | 0.75 | i |
| O=C(Cn1c(=O)oc2cc(S(=O)(=O)N3CCCC3)ccc21)Nc1ccc(C(F)(F)F)cc1 | 2 | i |
| O=C(CSc1ncn[nH]1)Nc1ccc(Br)cc1F | 2.7 | i |
| Clc1cnc(N/N=C/c2ccncc2)c(Cl)c1 | 0.02 | i |
| CC(NC(=O)CCSc1nc(-c2ccco2)cc(C(F)(F)F)n1)c1ccccc1 (stereo unspecified) | -0.01 | i |
| Cc1c(C(=O)c2ccccc2)oc2ccc3ccccc3c12 | -1.1 | i |

The results go on.
| Molecule | KCNQ2 block baseline | KCNQ2 block |
| --- | --- | --- |
| CCOC(=O)c1csc(NC(=O)C(C)(C)C)n1 | -0.03 | i |
| CNc1[nH]ncc1[N+](=O)[O-] | -0.39 | i |
| N#CCCN1CCCN(CCC#N)CCN(CCC#N)CCCN(CCC#N)CC1 | -1.3 | i |
| O=C(COC(=O)CCNS(=O)(=O)c1ccccc1F)Nc1nnc(-c2ccccc2)o1 | 0.32 | i |
| CCn1ccnc1[C@@H]1C[C@H]2CN(Cc3cccc(Cl)c3)C(=O)[C@]23CCCN13 | -0.2 | i |
| O=C(Cc1ccc(F)cc1)Nc1cccc(-c2ccc3nncn3n2)c1 | 4.2 | i |
| O=C(NNc1nc(-c2ccccc2)cs1)c1cccs1 | -2.2 | i |
| O=C(Nc1ccc2oc(-c3ccc4ccccc4c3)nc2c1)c1cccs1 | -0.8 | i |
| S=C(Nc1ccccc1Cl)N1CCCCC1 | -0.62 | i |
| N#Cc1ccc(Oc2cc(C(F)(F)F)nc(-c3ccccn3)n2)cc1 | -0.01 | i |
| CSc1cccc(NC(=S)N(Cc2ccccc2)Cc2cccnc2)c1 | 1.2 | i |
| O=C(c1ccccc1)N1CN2CN(C(=O)c3ccccc3)CC([N+](=O)[O-])(C2)C1 | -0.78 | i |
| Cc1ccc(Cn2ncn3c(cc4ccccc43)c2=O)cc1 | -0.32 | i |
| CCCn1c(=O)c2c(nc(Br)n2CCC)n(C)c1=O | 1.6 | i |
| O=C(N/N=C/c1ccccc1)c1cccc2ccccc12 | -1.2 | i |
| CCC(C)(C(=O)NC1CCCCC1)N(Cc1ccco1)C(=O)Cc1cccs1 (stereo unspecified) | 0.72 | i |
| CCN(c1ccc(C)c(C)c1)S(=O)(=O)c1c(C)[nH]c(=O)[nH]c1=O | -0.32 | i |
| CCOC(=O)N1CCN(C(=O)c2ccc(N(Cc3ccccc3)S(C)(=O)=O)cc2)CC1 | 1 | i |
| Cc1ccc(C2N(c3ccc(Cl)cc3)C(=O)N3CCCN23)cc1 (stereo unspecified) | 3 | i |
| CCN(C(=O)CSc1nnnn1-c1ccccc1OC)C1CCS(=O)(=O)C1 (stereo unspecified) | 0.19 | i |
| CS(=O)(=O)N(CC(=O)N1CCCCCC1)Cc1ccc(Cl)cc1 | 2.6 | i |
| O=C(c1ccccc1[N+](=O)[O-])N(CCc1ccccc1)Cc1ccccc1 | -0.03 | i |
| Clc1cccc(-c2nc3nc4ccccc4nc3n2Cc2ccccc2)c1 | -0.45 | i |
| CC(=O)Nc1cccc(N=NN2CCCCC2)c1 | 0.94 | i |
| COc1c(Cl)cc(C(=O)O)cc1Cl | -1.8 | i |
| CCCc1nn(C)c(C(=O)Nc2cccc3ccccc23)c1Cl | 2.1 | i |
| Cn1c(SCC(=O)Nc2nccs2)nnc1-c1ccc(S(=O)(=O)N2CCCC2)cc1 | -0.06 | i |
| Cc1nc(SCC(=O)Nc2ccc3c(c2)OCO3)c(C#N)c2c1CCCC2 | 0.64 | i |
| Cc1c(Cl)cccc1NC(=S)/C(=C(\[O-])c1ccc(Cl)s1)[n+]1ccccc1 | 0.63 | i |
| CSc1nnc([C@@H](NC(=O)OC(C)(C)C)C(C)C)o1 | 0.89 | i |
| Cn1c(CNC(=O)c2ccccc2F)nnc1SCC(=O)c1ccccc1 | -1.3 | i |
| O=C(CSc1nc(O)cc(=O)[nH]1)N1CCOCC1 | 1.9 | i |
| COc1nc(-c2ccccc2)nc(-c2ccccc2)c1C | 0.28 | i |
| CC(C)NC(=O)CSCc1c(F)cccc1Cl | -0.28 | i |
| CCN=C1SC(CC(=O)NCc2ccccc2)C(=O)N1CC (stereo unspecified) | 0.74 | i |
| CCOc1ccc(-c2[nH]ncc2Oc2cccc(OC)c2)c(O)c1 | -1.5 | i |
| CCOc1ccc(N/C(=C(/C(Cl)=C(Cl)Cl)[N+](=O)[O-])n2cncn2)cc1 | 0.49 | i |
| CCOC(=O)C1(CC2CC2)CCN(C(=O)c2ocnc2C)CC1 | 0.07 | i |
| O=C(OCc1nnc(-c2ccccc2)o1)c1ccc2c(c1)OCCO2 | -0.81 | i |
| COc1ccc(C(C)C)cc1S(=O)(=O)Nc1ccccn1 | -0.52 | i |
| Cc1ccc(C)n1-c1cc(S(=O)(=O)N2CCOCC2)ccc1N1CCCC1 | -0.67 | i |
| CCOC(=O)NNC(=O)c1ccc(Cl)cc1 | -0.8 | i |
| CCN(CC(=O)Nc1ccc(OC)cc1)C(=O)CN1C(=O)NC(C)(c2ccc3ccccc3c2)C1=O (stereo unspecified) | 1.2 | i |
| O=C(O)c1ccc(N=NN2CCCC2)cc1 | -0.7 | i |
| O=C(O)c1cc(N/N=C/c2ccc(N3CCOCC3)cc2)ccc1Cl | -0.58 | i |
| CC(C)OC(=O)CSc1nnc2c(n1)[nH]c1ccc(F)cc12 | 0.04 | i |
| O=C(N/N=C/c1ccccn1)c1ccc(NC(=O)c2ccccc2Cl)cc1 | -0.96 | i |
| Cc1cc(=O)oc(C)c1C(=O)N1CCc2c([nH]c3ccccc23)C1C(C)C (stereo unspecified) | 0.76 | i |
| Cc1ccc(OCC(=O)Nc2ccc3c(c2)OCO3)cc1C | -0.04 | i |
| O=C(Cn1cc2c(n1)CCCC2)N1CCCC1 | -0.03 | i |

The list continues:
| Molecule | KCNQ2 block baseline | KCNQ2 block |
| --- | --- | --- |
| CCOc1ccc(N(C(C)C(=O)N/N=C(\C)c2cccc(NC(=O)c3ccccc3)c2)S(C)(=O)=O)cc1 (stereo unspecified) | 1.4 | i |
| CCOC(=O)C1=C(C)N(C)C(=O)NC1c1cccc([N+](=O)[O-])c1 (stereo unspecified) | -0.4 | i |
| Cc1cc(C)n(Cc2ccc(C(=O)NCCC3=CCCCC3)o2)n1 | -1.8 | i |
| CCN(CCO)C(=O)c1ccc2nc(Cc3cccc(Cl)c3)oc2c1 | -0.04 | i |
| Cc1cc(SCC(=O)Nc2cccc(S(=O)(=O)NC3=NCCCCC3)c2)nc2ccccc12 | 2.4 | i |
| Cc1ccc(Nc2c(-c3ccco3)nc3ccccn23)cc1 | 0.85 | i |
| O=C(NC(NC(=O)c1c(F)cccc1F)c1ccc([N+](=O)[O-])cc1)c1c(F)cccc1F | -0.78 | i |
| CCC(C)N1C(=O)N(c2cccc(Cl)c2)C(C)(O)CC1(C)C (stereo unspecified) | 1.5 | i |
| Cc1ccc2nccc(C(=O)N3CCCC(Nc4ccc(C)c(C)c4)C3)c2c1 (stereo unspecified) | -1.4 | i |
| CCCCN(C(=O)C1CC(=O)N(CCc2ccc(OC)c(OC)c2)C1)c1c(N)n(CCCC)c(=O)[nH]c1=O (stereo unspecified) | 0.6 | i |
| COc1cc(C2/C(=C(\O)c3cc(C)ccc3C)C(=O)C(=O)N2CCN(C)C)ccc1O (stereo unspecified) | 0.75 | i |
| COC(=O)c1ccc(CSc2nc3sc4c(c3c(=O)n2C)CCCC4)o1 | 0.24 | i |
| CCOC(=O)Cc1csc(NC(=O)CSc2ccc(Br)cc2)n1 | 0.16 | i |
| S=C(NCc1ccccc1)N1CCN(Cc2ccc3c(c2)OCO3)CC1 | 1.2 | i |
| CCCCNCc1cc2ccccc2o1 | 0.22 | i |
| CCOC(=O)COc1coc(CN2CCN(c3cccc(Cl)c3)CC2)cc1=O | 0.75 | i |

Assay outcomes as filed in PubChem.
